Screens as filed in PubChem BioAssay.
TAR Tat displ = TAR RNA-Tat peptide displacers, HIV-1, primary screen, biochemical, FRET, FAM/TAMRA-labeled Tat | HIV-1 TAR RNA, Tat peptide displacement FRET; active compounds read high | z-score (concentration not given with the values) | 100,000 compounds, 0.6% hits | AID 1259389, 2018;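 further: score is relative to mean and SD of negative controls; some compounds called inactive have numbers as strong as hits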
CDC25B-CDK2 inh = primary biochemical HTRF screen for blockers of M-phase inducer phosphatase 2 binding to CDK2/cyclin A; HTRF CDC25B-CDK2/CyclinA binding, anti-His/anti-Flag; active compounds read high; z-score (test concentration not listed); 94,000 compounds, 0.72% hits; P30305+P24941;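 further: score is relative to mean and SD of negative controls; strong numbers were not always called active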
Active calls of the source: *; . = not tested or not shown.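 How the source made its calls: active means z-score from 3 up in half or more of its runs; inactive means the rest.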

SMILES | TAR Tat displ | CDC25B-CDK2 inh
O=C1CC(c2ccco2)CC2=C1C(c1ccc(Cl)cc1)N(C(=O)c1ccccc1)c1ccccc1N2 (centres undefined) | -0.41 | 0.48
Cc1cccc(C(=O)Nc2sc3c(c2C(=O)N2CCCC2)CCC3)c1 | . | -1.6
O=C(O)CN1C(=O)C(c2ccccc2)Oc2cccnc21 (centres undefined) | 0.71 | 1.5
Cc1ccc(S(=O)(=O)N2CCCC2)cc1-c1nnc2c3ccccc3c(C)nn12 | . | -0.86
CC(=O)Nc1ccc(NC(=O)Cn2ncc3c([nH]c4ccccc43)c2=O)cn1 | 0.88 | .
COc1ccc2cc(CCNC(=O)CC(C)(C)C)c(=O)[nH]c2c1 | . | -2.5
CCN(CC)CCNS(=O)(=O)c1ccc(-c2ccc(=O)[nH]n2)s1 | 1 | .
CCC(Sc1nnc(C)n2c1cc1occc12)C(=O)Nc1ccc(OC)c(Cl)c1 (centres undefined) | 0.45 | .
Cc1cc(=O)n2nc(N3CCCC3C(=O)Nc3ccc(Br)cc3F)sc2n1 (centres undefined) | 0.98 | -1
CCc1ccc(-c2cc(C)no2)cc1S(=O)(=O)N(Cc1ccc(F)cc1)Cc1cccnc1 | -0.46 | .
CCOC(=O)c1noc2nc(C)nc(NCCCN3CCOCC3)c12 | -1.4 | .
O=c1[nH]c(=O)n(-c2ccccc2F)c2c1CN(Cc1ccccc1Cl)CN2 | -0.74 | -0.37
O=C(C1CCCN(S(=O)(=O)c2cccc3nonc23)C1)N1CCN(c2cccc(Cl)c2)CC1 (centres undefined) | -1.5 | -2.6
O=S(=O)(c1ccccc1)N(CC(O)CN1CCCCC1)c1ccccc1 (centres undefined) | . | 0.02
O=C(COc1ccc2c(-c3ccccc3)cc(=O)oc2c1)OCc1ccccc1 | . | 0.81
Cc1ccc(CNc2nc(N3CCC(N4CCCCC4)CC3)nc3c2cnn3C)cc1 | 0.85 | .
COc1ccc(N2C(=O)CC(NCCNc3ccc([N+](=O)[O-])cn3)C2=O)cc1 (centres undefined) | -0.35 | 0.04
Cc1ccc2c(c1)-c1cc(C)nn1C(c1ccc(O)cc1O)N2 (centres undefined) | 1.2 | -2.5
CCCc1nnc(NC(=O)Cc2coc3ccc(OC)cc23)s1 | 0.93 | -1
Cc1cc(S(=O)(=O)n2nc(-c3ccc(Br)cc3)cc2N)ccc1F | 0.66 | -0.21
Clc1ccc(-c2noc(-c3ccc(CN4CCOCC4)cc3)n2)cc1 | 3.2 | -1.4
CSc1ccc(NC(=O)Cn2nc(-c3ccc4c(c3)OCCO4)ccc2=O)cc1 | 0.28 | -2.5
Cc1nc2ccc(S(=O)(=O)NC(C(=O)NCc3ccco3)C(C)C)cc2s1 (centres undefined) | 0.48 | -0.23
CC(C)CCNC(=O)c1c[nH]c2ccc(S(=O)(=O)N3CCC4(CC3)OCCO4)cc2c1=O | . | -1.6
CCc1ccc(N2CC(O)=C(c3nc4ccccc4c(=O)[nH]3)C2=N)cc1 | 1.4 | -2.2

More structures.
SMILES | TAR Tat displ | CDC25B-CDK2 inh
CN1C(=O)c2cc(C(=O)NCCCN3CCCC3=O)nn2CC1(C)C(=O)NC1CCCC1 (centres undefined) | -0.31 | .
COCc1cc(C)nc2sc3c(=O)n(C(C)(C)C)nnc3c12 | -0.12 | -0.47
CCOc1ccc(OCC)c(NS(=O)(=O)c2ccc3[nH]c4c(c3c2)CCCC4)c1 | -6.8 | .
CC1Sc2ccc(S(=O)(=O)CCC(=O)NCc3cccs3)cc2NC1=O (centres undefined) | 0.49 | .
CNC(=O)c1c(NC(=O)c2cccc(Br)c2)sc2c1CCC2 | -2.6 | .
CCC(=O)N1c2ccccc2NC2=C(C(=O)CC(c3ccccc3)C2)C1c1ccc([N+](=O)[O-])cc1 (centres undefined) | . | -1.9
CCCCOC(=O)Nc1nnc(C(C)C)s1 | 0.93 | -0.78
Clc1cncc(Cl)c1N/N=C/C1CC2C=CC1C2 (centres undefined) | . | 0.31
Cc1ccn2c(=O)c(Cc3nnc(SCC(=O)Nc4ccc5c(c4)OCO5)n3C)c(C)nc2c1 | -0.23 | -0.76
CCOC(=O)CNc1cc(S(=O)(=O)N(C)C)ccc1C | . | -2.5
CCCOC(=O)C1=C(C)NC2=C(C(=O)C(C(=O)OC)C(C)C2)C1c1ccc(OC)cc1 (centres undefined) | -1.6 | -1.7
Cc1c(-c2csc(-c3ccc4c(c3)OCCO4)n2)cnn1-c1ccccc1 | . | 0.14
CCCN1CCN(CCCNC(=O)C2=C(C)C(=O)OC23CCCCC3)CC1 | 1.1 | .
c1ccc(Oc2nc(-c3cccnc3)nc3ccccc23)cc1 | . | -0.44
COc1ccc(/C=C/c2noc(-c3ccccc3O)n2)cc1OC | 0.18 | 1.5
COC(=O)c1[nH]c(-c2ccccc2)c(C)c1C(=O)OC | . | -0.92
CCCN1CNc2c(c(=O)n(C)c(=O)n2C)C1 | -0.43 | -0.11
Cc1ccc(-c2noc(-c3ccc(Br)cc3)n2)cc1 | -0.07 | .
CCOC(=O)c1ccc(OC(=O)c2ccc(Cl)cc2[N+](=O)[O-])cc1 | . | -0.73
CC(=O)NC(CCS(C)(=O)=O)C(=O)Nc1nc(C)cs1 (centres undefined) | -0.79 | -1.3
COc1ccccc1N1CCN(c2ccc(=O)n(CC(=O)O)n2)CC1 | 0.66 | 0.23
CCN(CC)c1ncnc2c1[nH]c1ccccc12 | 1.3 | -0.58
CCSc1nc(=O)c2c(n1C)NC(=O)CC2c1ccc(OC)c(Br)c1 (centres undefined) | 1.5 | 0.27
O=c1c(-c2ccccc2)c(N2CCN(c3ccccc3F)CC2)c1=O | -0.12 | .
COC(=O)c1ccc(S(=O)(=O)NCc2csc3ccc(Cl)cc23)n1C | . | 0.09

17 consecutive compounds out of the list so far:
SMILES | TAR Tat displ | CDC25B-CDK2 inh
CN1C(=O)c2cc(C(=O)NCCCN3CCCC3=O)nn2CC1(C)C(=O)NC1CCCC1 (centres undefined) | -0.31 | .
COCc1cc(C)nc2sc3c(=O)n(C(C)(C)C)nnc3c12 | -0.12 | -0.47
CCOc1ccc(OCC)c(NS(=O)(=O)c2ccc3[nH]c4c(c3c2)CCCC4)c1 | -6.8 | .
CC1Sc2ccc(S(=O)(=O)CCC(=O)NCc3cccs3)cc2NC1=O (centres undefined) | 0.49 | .
CNC(=O)c1c(NC(=O)c2cccc(Br)c2)sc2c1CCC2 | -2.6 | .
CCC(=O)N1c2ccccc2NC2=C(C(=O)CC(c3ccccc3)C2)C1c1ccc([N+](=O)[O-])cc1 (centres undefined) | . | -1.9
CCCCOC(=O)Nc1nnc(C(C)C)s1 | 0.93 | -0.78
Clc1cncc(Cl)c1N/N=C/C1CC2C=CC1C2 (centres undefined) | . | 0.31
Cc1ccn2c(=O)c(Cc3nnc(SCC(=O)Nc4ccc5c(c4)OCO5)n3C)c(C)nc2c1 | -0.23 | -0.76
CCOC(=O)CNc1cc(S(=O)(=O)N(C)C)ccc1C | . | -2.5
CCCOC(=O)C1=C(C)NC2=C(C(=O)C(C(=O)OC)C(C)C2)C1c1ccc(OC)cc1 (centres undefined) | -1.6 | -1.7
Cc1c(-c2csc(-c3ccc4c(c3)OCCO4)n2)cnn1-c1ccccc1 | . | 0.14
CCCN1CCN(CCCNC(=O)C2=C(C)C(=O)OC23CCCCC3)CC1 | 1.1 | .
c1ccc(Oc2nc(-c3cccnc3)nc3ccccc23)cc1 | . | -0.44
COc1ccc(/C=C/c2noc(-c3ccccc3O)n2)cc1OC | 0.18 | 1.5
COC(=O)c1[nH]c(-c2ccccc2)c(C)c1C(=O)OC | . | -0.92
CCCN1CNc2c(c(=O)n(C)c(=O)n2C)C1 | -0.43 | -0.11

Next results follow:
SMILES | TAR Tat displ | CDC25B-CDK2 inh
O=C(NCc1cccs1)c1ccc(Cn2c(=O)c3cccn3c3cccnc32)cc1 | 0.26 | .
COc1ccc(CNCC(O)COc2ccc(C)cc2[N+](=O)[O-])cc1 (centres undefined) | . | -3
c1ccc2c(c1)c1ccccc1n2C1CCS1 (centres undefined) | . | -3.9
CCc1nn(CC(=O)NCCC(C)C)c(=O)c2cc3occc3n12 | 0.64 | -1.1
Cc1c(C(=O)Nc2nccs2)sc2nc3n(c(=O)c12)CCCCC3 | 0.78 | .
COc1ccc(-c2n[nH]c(=O)c(Cc3ccc(Br)cc3)n2)cc1 | 1.1 | .
COc1ccc2nc(NC(=O)CC3Oc4ccccc4NC3=O)sc2c1 (centres undefined) | -0.44 | -2.7
O=C(COc1ccc2c(c1)oc(=O)c1ccccc12)OCc1ccccc1 | 2.4 | -1.4
CC(=O)N1CCc2cc(S(=O)(=O)NC(C(=O)Nc3ncc([N+](=O)[O-])s3)C(C)C)ccc21 (centres undefined) | . | -1.2
COc1cc(CNCCC2CCOC(C)(C)C2)ccc1O (centres undefined) | 2.6 | 0.61
N/C(=N\O)c1c(-c2ccccc2)cc(-c2ccc(F)cc2)[nH]c1=O | . | 11*
COc1ccc(/C=N/Nc2ncnc3cc(C(C)(C)C)sc23)cc1 | . | -0.96
O=C(CN1c2ccccc2S(=O)(=O)c2ccccc21)Nc1cc(F)ccc1F | -0.44 | .
CC(CNc1nc2ccccc2n2cnnc12)c1ccccc1 (centres undefined) | 0.27 | 0.56
Cc1ccc(-c2nc(-c3cccnc3)no2)cc1C | 0.78 | 0.53
CCOC(=O)C1CCN(c2c(NC3CCCCCC3)c(=O)c2=O)CC1 | . | -2.2
O=C(c1cc(C2CC2)[nH]n1)N1CCN(c2ccccc2)CC1 | -0.57 | .
CC(C(=O)N1CCc2ccccc21)n1sc2ccccc2c1=O (centres undefined) | 0.87 | -1.6
Cc1nc(-c2csc(S(=O)(=O)Nc3cc(Cl)ccc3C)c2)no1 | 1.2 | .
CCN(CC)CCCNC(=O)Cn1cnc2c1c(=O)n(C)c(=O)n2C | 0.59 | 0.43
Cc1c(C(=O)NC(C)C)oc2ccc(S(=O)(=O)N3CCOCC3)cc12 | . | -0.77
O=[N+]([O-])c1ccc(N2CCN(c3ccc([N+](=O)[O-])cc3CO)CC2)c(CO)c1 | . | -0.18
CCOc1ccc(C2c3c(-c4cc(C)ccc4O)n[nH]c3C(=O)N2CCO)cc1OCC (centres undefined) | 1.4 | -0.48
O=C(COc1ccccc1)NC1CCSC1=O (centres undefined) | 1.2 | -2.4
O=C(NC1CCSC1)c1ccccc1NS(=O)(=O)c1ccccc1 (centres undefined) | . | -1.9

Next section, overlapping the part above by 2 compounds.
SMILES | TAR Tat displ | CDC25B-CDK2 inh
O=C(COc1ccccc1)NC1CCSC1=O (centres undefined) | 1.2 | -2.4
O=C(NC1CCSC1)c1ccccc1NS(=O)(=O)c1ccccc1 (centres undefined) | . | -1.9
CCCCN1C=NS(=O)(=O)c2ccccc21 | -0.65 | .
O=C1CC(c2ccccc2)N(c2cccc(C(F)(F)F)c2)C(=S)N1 (centres undefined) | . | 0.1
CC1=C(c2ccc(F)cc2)S(=O)(=O)N=C1N1CCCCC1 | 0.19 | .
Cc1cc(C)nc(-n2nc(C)c3c2NC(=O)CC3c2cccs2)n1 (centres undefined) | 0.81 | -1.1
CC(=O)NN(O)C1N(C)C(=O)N(Cc2ccccc2)C1(C)C (centres undefined) | . | -2.5
COCc1nnc(NC(=O)c2ccco2)s1 | 3.4 | 1.6
CN1C(=O)Cc2cc(NS(=O)(=O)c3ccc4c(c3)CCCC4)ccc21 | 2.8 | .
Cc1sc2nc(CNc3cccc(Cl)c3)[nH]c(=O)c2c1C | -5 | 2.3
O=C(O)CNc1n[nH]c(=O)[nH]c1=O | -0.5 | -0.99
COc1ccc(-c2c(O)c3cc4c(c(CC=C(C)C)c3oc2=O)OC(C)(C)CC4)cc1 | 0.87 | .
CCOCCc1nn2c(=O)cc(COC(=O)COc3ccccc3Cl)nc2s1 | -0.34 | .
Clc1cccc(-c2noc3ncnc(NCc4ccccc4)c23)c1 | -0.16 | .
CC1=C(c2ccc(Cl)cc2)S(=O)(=O)NC1=NCc1ccc(F)cc1 | 1.2 | -6.9
CCOC(=O)c1c(C)[nH]c(C)c1S(=O)(=O)NC(C)c1ccc2c(c1)OCCO2 (centres undefined) | 0.13 | .
CCc1ccc(-c2cc(C)no2)cc1S(=O)(=O)NCc1ccccc1Cl | 0.26 | .
CC(=O)O[C@H]1C[C@@]2(C)[C@@H](C[C@@H](O)C3[C@]2(C)CC[C@H]2[C@H](C)[C@H](O)CC[C@]32C)/C1=C(/CCC=C(C)C)C(=O)O (some centres undefined) | 0.1 | .
COC(=O)C1=NS(=O)(=O)c2ccccc2N1 | 0.55 | -1.4
Cc1c(OCc2ccc(Cl)c(Cl)c2)ccc(C(=O)/C=C/N(C)C)c1O | . | -1.5
CCOc1c(Nc2cc(C)cc(C)c2)c(=O)c1=O | 0.82 | .
NC(=O)c1ccc(-c2csnn2)cc1 | . | -0.13
CCOC(=O)c1ccc(NC(=O)CSc2ccccn2)cc1 | . | -1.2
CCCC(=O)Nc1c(C(=O)NC(C)(C)C)oc2ccccc12 | -0.31 | -0.73
Cn1c(=O)oc2cc(S(=O)(=O)N3CCCC(C(=O)N4CCCCCC4)C3)ccc21 (centres undefined) | . | -0.02
CCC(Sc1nc2ncccc2[nH]1)C(=O)N1CCOCC1 (centres undefined) | 0.83 | .
COCCOC(=O)c1c(C)oc2c1cc(NS(=O)(=O)c1ccc(C)cc1)c1ccccc12 | . | 0.15

More records
SMILES | TAR Tat displ | CDC25B-CDK2 inh
COCCCNC(=O)c1c(NC(=O)c2cc(=O)c3ccccc3o2)sc2c1CCCC2 | -0.23 | -0.07
COc1cc(CN2CCN(Cc3cccnc3)CC2)cc(OC)c1OC | . | 0.36
COc1ccc2c(c1OC)C(=O)OC2Nc1nccs1 (centres undefined) | 0.12 | 1.6
N#Cc1c(NC(=O)CN2C(=O)C3CC=C(Cl)CC3C2=O)sc2c1CCC2 (centres undefined) | . | 0.09
O=C(CN1C(=O)c2cccnc2Sc2ccccc21)N1CCN(C2CCCCC2)CC1 | -0.77 | .
CCCc1c(O)nc(SCCN2CCOCC2)n(-c2ccccc2)c1=O | -0.02 | 0.42
CCS(=O)(=O)N1CCC2(CC1)OC(=O)C(C)=C2C(=O)NCCN1CCCC1 | 0.69 | .
COc1ccc(-c2cc(-c3cc(C(=O)O)[nH]n3)c3ccccc3n2)cc1 | 2 | -1.3
